Screening results deposited in PubChem BioAssay by several laboratories.
PrP 5UTR inh – inhibition of PrP 5' UTR reporter expression; AID 488862, 2010; cell-based PrP 5' UTR mRNA reporter, plate reader; inhibition, % (test concentration not listed); 0.35% of 340,000 active;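 active means every replicate at 50% or more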;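 further: 0 = median of the neutral control wells; tested in H4 reporter cells; numbers are from one replicate; inactives centre near -14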
Sa RN4220 lethal – growth inhibition of S. aureus RN4220, primary screen, OD600; 16 h; inhibition, % (no concentration beside the values); 0.33% of 330,000 active;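 active means z-score of -3 or lower and OD600 up to 0.18 on both plates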;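 further: plate controls were untreated cells for no effect and reference antibiotic for full effect; stock transfer was 100 nL into about 80 µL; one replicate is shown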
ugtP null kill – growth inhibition of ugtP-null S. aureus, primary screen, RN4220 ugtP deletion, OD600 | 16 h; some inactives read as strong as hits | AID 1259309, 2017 | 0.54% of 330,000 active | growth inhibition, % (no concentration beside the values);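 active means z-score under -3 and OD600 up to 0.15 on both plates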;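 further: plate controls were untreated wells for no effect and antibiotic for full effect; wells of about 80 µL received 100 nL stock; the first replicate is given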
BJeLR viability – MLPCN primary cell-based screen for lethality selective to Ras in HRASV12 cells; BJeLR (HRASV12) viability, CellTiter-Glo ATP luminescence, 48 h; reference of the scale not given here; inhibition, % (test concentration not listed); 0.17% of 300,000 active;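 active means replicate mean above 50%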;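 further: 50 nL library stock added to about 25 µL; numbers are from one replicate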
Mtb hypoxia inh – PubChem AID 1159583; M. tuberculosis hypoxia-regulated fluorescent reporter, fluorescence; fluorescence inhibition, % (test concentration not listed); 0.1% of 300,000 active;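 active means 35 to 45% if threefold the growth effect, above 45% if 1.5-fold the growth effect; inactive means the rest, general growth blockers included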;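 further: wells of about 50 µL received 100 nL stock; 0% = vehicle wells and 100% = reference inhibitor wells; whole bacteria with a GFP reporter of the hypoxia response; strong numbers were not always called active; many hits fall short of the cut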
Autofluor counter – counter-screen for toxin protease inhibitors: compound fluorescence; compound autofluorescence counterscreen, microsphere flow cytometry; hits give high values; fluorescence intensity (concentration not given with the values); 3.1% of 360,000 active; AID 624483;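 active means at least 3 SD above the mean of all compounds, about 16000 in these data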;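 further: 100 nL of 1 mM stock went into each well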
Mtb hypoxia inh growth – second read-out of Mtb hypoxia inh, no call of its own (marks repeat the call); growth inhibition, %; measured here: M. tuberculosis growth (absorbance);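 0% = vehicle and 100% = reference antibiotic; read after six days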
An asterisk follows results filed as active; · = not tested or not shown.

SMILES	PrP 5UTR inh	Sa RN4220 lethal	ugtP null kill	BJeLR viability	Mtb hypoxia inh	Mtb hypoxia inh growth	Autofluor counter
CC(=NNC(N)=O)c1ccc(-n2ccnc2)cc1	·	3.2	4	·	-7	-10	·
CCOC(=O)c1ccc(N=c2sc(C(=O)OC)cc(=O)n2Cc2ccco2)cc1	2	-11	-9	-16	3	11	6668
COC(=O)c1sc2[nH]c(=S)n(N)c(=O)c2c1C	-9	3.9	3	·	7	6	4457
COc1ccc(-n2c(Cc3cc(=O)[nH]c(=O)[nH]3)nnc2SCC(=O)Nc2cc(C(F)(F)F)ccc2Cl)cc1	-27	-3.8	-12	4	-4	-2	2721
Cc1ccc(S(=O)(=O)N2CCOCC2)cc1C(=O)Nc1ccccc1F	-19	2.1	2	-20	8	-15	6279
CCC/C(O)=C1\C(=O)CC(C)(C)CC1=Nc1ccccc1O	-27	-1.7	-2	2	0	12	4684
CC(C)NP(=O)(NC(C)C)OP(=O)(NC(C)C)NC(C)C	-9	6.3	3	·	3	2	6068
Cc1cc2nnc(SCC(=O)N3CCCCCC3)n2c(N)n1	-19	-3.2	-7	-2	9	4	2533
O=C(OCCN1C(=O)c2ccccc2C1=O)Oc1ccccc1	0	6.6	14	-8	10	-3	4065
CC(=O)NCC(=O)N(Cc1ccco1)C1(C(=O)NC2CCCC2)CCCCC1	-13	1.9	-7	-5	-3	1	3944
Cc1[nH]n(-c2ccc(Br)cc2)c(=O)c1C=Nc1ccc(S(=O)(=O)Nc2nccs2)cc1	-30	2.9	5	26	19	16	10648
Cc1ccc(OCC(=O)NNC(=S)NC(=O)C2CCCCC2)c(C)c1	-12	60	22	4	10	5	6085
Cc1ccc(NC(=O)CSc2n[nH]c(=O)n2C2CC2)cc1S(=O)(=O)N1CCOCC1	-2	5.0	8	0	-1	3	2500
NCCCC[C@H]1CN=C(N)N1CCC12CC3CC(CC(C3)C1)C2	-15	·	·	-6	·	·	4635
CSc1nc2ccc(NS(=O)(=O)c3ccc(Br)s3)cc2s1	-14	14	2	-5	0	-7	4619
Cc1ccc(N(CC(O)CN2C(=O)NC(C)(C)C2=O)S(=O)(=O)c2ccc(C)cc2)cc1 (configuration not stated)	-17	3.9	12	-7	14	7	4407
Cc1ccc(/C=N/NC(=O)C(C)Oc2cccc3ccccc23)o1 (configuration not stated)	-3	·	·	1	·	·	6060
Cc1nc(C)c(-c2csc(Nc3cccnc3)n2)s1	·	5.9	21	-10	9	-1	8440
Cn1ncc(Br)c1C(=O)NN=Cc1cccc(OC2CSC2)c1	·	5.3	11	·	3	4	·
CC1=NN(C(=O)c2c(Br)c(C)nn2C)C(O)(C(F)(F)F)C1 (configuration not stated)	-32	27	10	20	0	-3	7658
CCOC(=O)N1CCC(N2Cc3cccc(C(=O)NCC4CCN(CC(C)C)C4)c3C2=O)CC1 (configuration not stated)	-16	7.9	-1	·	-8	-1	7606
O=C(CN1CCCCCC1)NCC1CCCO1 (configuration not stated)	-24	2.1	5	-7	15	11	4689
CCc1cccc2c(C(=O)C(NC(C)CC)c3ccccc3)c[nH]c12 (configuration not stated)	-11	-6.5	-16	-3	12	4	3989
O=C1CC(c2ccccc2)CN1 (configuration not stated)	-38	2.1	-2	-5	14	10	3940
CN1C(=O)C(C)(C)c2cc(S(=O)(=O)N(C)Cc3ccccc3)ccc21	-24	5.9	-6	19	-1	1	5700
SMILES	PrP 5UTR inh	Sa RN4220 lethal	ugtP null kill	BJeLR viability	Mtb hypoxia inh	Mtb hypoxia inh growth	Autofluor counter
CCc1cc(CNC(=O)CC2C(=O)NCCN2Cc2ccccc2C(F)(F)F)on1 (configuration not stated)	-28	1.2	3	-6	5	10	4022
COc1ccc(C(=O)N/N=C/c2ccc3cccc(O)c3n2)cc1	-30	·	·	-20	·	·	2590
COc1ccc(Nc2nc(CC(C)=O)ns2)cc1OC	-9	-12	4	6	·	·	2398
O=C(CN1C(=O)NC2(CCc3ccccc32)C1=O)Nc1ccccc1C(F)(F)F (configuration not stated)	-14	-1.2	2	·	-6	-14	·
O=C(COC(=O)c1ccc(Cl)nc1)NCCc1ccc(F)cc1	5	0.5	-4	·	13	7	·
Cc1ccc(CCc2nnc(SCC(=O)Nc3cccc(Cl)c3)n2-c2ccccc2)o1	-3	7.0	-10	-11	5	3	2432
O=C(NN=CC1=C(N2CCOCC2)/C(=C\c2ccccc2)CC1)Nc1ccccc1	·	-5.0	-8	·	-8	3	·
O=C(CN1C(=O)NC2(CCCC2)C1=O)N1CCN(S(=O)(=O)c2cccc(F)c2)CC1	-11	0.4	1	10	3	2	5124
COc1ccc(OC)c(NC(=S)NCC(c2cccnc2)N2CCOCC2)c1 (configuration not stated)	-13	1.0	6	10	10	7	2467
CC(=O)NC1CC2CCC(C1)N2Cc1ccc(C)cc1 (configuration not stated)	-18	3.9	2	-1	6	2	7576
NC(=O)C1CC12c1ccccc1-c1ccccc12 (configuration not stated)	-4	-4.3	-2	-4	3	3	3073
O=C(NC(=S)NNC(=O)c1ccc(Cl)cc1Cl)c1cccnc1	4	21	-10	4	-10	0	6833
CCN(CC)CCNC(=O)c1c(O)c2ccccc2n(Cc2ccccc2)c1=O	-18	-6.6	11	5	·	·	2842
COC(=O)c1ccc(COc2ccccc2/C=C(\C#N)C(=O)Nc2ccc(C)cc2)cc1	-33	·	·	8	·	·	8394
Cc1c(CN2CCC(C)CC2)c(=O)n(-c2ccccc2)n1C	-10	1.2	0	7	4	3	9806
CCOc1ccc(Cl)cc1C=NO	·	11	12	·	3	4	·
O=C1C=C(Nc2ccccc2)C(=O)c2ccccc21	-81	29	30	-7	·	·	5772
CCOC(=O)c1c(NC(=O)Nc2ccccc2)sc(C)c1C	-17	7.2	-20	-7	·	·	2706
Cc1ccc2c(c1)c(N=Nc1cccc(C(=O)O)c1)c(O)n2C	2	22	-4	-2	6	5	2033
O=C(Nc1nccs1)C1CCN(S(=O)(=O)c2cccs2)CC1	-31	6.8	4	-19	-5	15	4477
O=[N+]([O-])c1cc(S(=O)(=O)N2CCCC2)ccc1SCCO	5	5.4	5	-14	-9	-1	3237
CCN(CC)CCNc1nc2c(c(=O)[nH]c(=O)n2C)n1CC(O)COc1ccc(Cl)cc1Cl (configuration not stated)	-7	2.5	7	12	5	7	2902
COc1ccc(-c2nc3c(c4nnc(SC(C)C(=O)Nc5ccccc5)n24)COC(C)(C)C3)cc1 (configuration not stated)	-18	0.1	-1	9	1	7	1996
CCN(CC(=O)Nc1c(F)cccc1F)C(=O)c1cc(S(=O)(=O)NCc2ccccc2)ccc1C	-12	1.0	1	2	5	-6	4573
CN1CCN(c2nc(-c3cccs3)cs2)CC1	-29	7.4	2	1	8	7	4206
SMILES	PrP 5UTR inh	Sa RN4220 lethal	ugtP null kill	BJeLR viability	Mtb hypoxia inh	Mtb hypoxia inh growth	Autofluor counter
Cn1cccc1C(=O)NNC(=O)COc1ccccc1Cl	-31	6.9	3	·	8	1	3907
Cc1ccc(OCC(=O)NCc2ccco2)cc1C	-10	2.2	6	-3	·	·	4851
Cc1nc(Nc2ccc3c(c2)OCCO3)c2nnn(Cc3ccccc3Cl)c2n1	13	-5.4	-26	11	4	12	11678
CC1=C(C(=O)OCc2ccccc2)C(c2ccccc2OS(=O)(=O)c2ccc(C)cc2)NC(=O)N1CCCC(=O)O (configuration not stated)	·	25	35	-2	3	0	·
CCOC(=O)c1c(NC(=O)CSc2ncnc3[nH]ncc23)sc2c1CCC(C)C2 (configuration not stated)	-25	-0.9	13	1	7	4	4082
COc1ccc(C)cc1Nc1nc(N)c2ccccc2n1	-17	1.7	-5	0	-5	2	3499
Cc1ccc(SCc2nc3ncccn3c2Br)cc1	-29	7.6	6	-4	9	11	3708
COc1cc(C(C)=O)ccc1COc1ccc(C(=O)OCC(=O)NC2CCS(=O)(=O)C2)cc1OC (configuration not stated)	-9	3.5	3	-12	14	1	2367
N/C(=N\OC(=O)c1ccc2c(c1)OCO2)c1cccc(Br)c1	-107	-0.1	0	14	4	1	4154
CSc1nc2c(cc1C#N)CCCCC2	-16	8.3	4	15	14	6	2373
COc1ccc(S(=O)(=O)N(C)C)cc1NCC(=O)Nc1cccc(C#N)c1	-13	1.9	4	0	-4	-2	4439
COc1ccc(C2CC(=O)N(c3ccccc3)C3=C2C(=O)CCC3)cc1 (configuration not stated)	·	1.3	-1	-8	14	10	3180
C=CCNCCCCOc1ccccc1-c1ccccc1	-14	1.2	2	-2	20	14	2864
c1ccc2c(c1)nc(N1CCOCC1)c1c3ccccc3[nH]c21	-19	-0.2	-31	0	3	-1	11087
Cn1c(=O)c2c(nc(Br)n2CCSc2ncccn2)n(C)c1=O	-21	0.1	-2	4	-4	4	3346
CC12CC(NC(=O)N1Cc1ccccc1)c1ccccc1O2 (configuration not stated)	-21	7.9	-6	13	1	4	7469
O=c1cc(CN2CCN(c3ccccc3)CC2)c2cc(O)c(-c3ccccc3)cc2o1	-6	-4.7	-12	3	·	·	5512
CCn1c(=O)c(C(=O)Nc2ccccc2C)c(O)c2ccccc21	-15	2.2	-1	0	3	4	22484*
C[C@@H]1NC(=O)c2cc([N+](=O)[O-])cc(I)c2OCC[C@@H](C(=O)NC(CC(=O)O)C(N)=O)NC(=O)[C@H](CCC(=O)O)NC1=O (some centres not stated)	·	-7.0	-1	·	6	4	·
O=C(CSc1nnc(CNC(=O)c2ccco2)o1)Nc1cccc(C(F)(F)F)c1	-8	1.0	-6	-7	14	5	5709
COc1ccc(OC)c(Cc2nnc(CCC(=O)NCc3ccsc3)o2)c1	-35	3.7	5	-1	-2	-8	4429
O=C(CN(Cc1ccc(Cl)cc1)C(=O)CN1C(=O)COc2ccccc21)NC1CCCC1	-13	-1.2	-1	3	14	1	3953
CCC(=NCc1ccco1)c1c(O)n(C2CCCCC2)c(=O)[nH]c1=O	2	2.9	-10	4	9	10	9369
Cc1cccc(N2CCN(C(=O)c3ccc(CNc4c(N5CCC(C)CC5)c(=O)c4=O)cc3)CC2)c1C	-3	2.6	-11	1	-2	5	2114

Some of the entries above, set out differently:
mol,PrP 5UTR inh,Sa RN4220 lethal,ugtP null kill,BJeLR viability,Mtb hypoxia inh,Mtb hypoxia inh growth,Autofluor counter
Cn1cccc1C(=O)NNC(=O)COc1ccccc1Cl,-31,6.9,3,·,8,1,3907
Cc1ccc(OCC(=O)NCc2ccco2)cc1C,-10,2.2,6,-3,·,·,4851
Cc1nc(Nc2ccc3c(c2)OCCO3)c2nnn(Cc3ccccc3Cl)c2n1,13,-5.4,-26,11,4,12,11678
CC1=C(C(=O)OCc2ccccc2)C(c2ccccc2OS(=O)(=O)c2ccc(C)cc2)NC(=O)N1CCCC(=O)O (configuration not stated),·,25,35,-2,3,0,·
CCOC(=O)c1c(NC(=O)CSc2ncnc3[nH]ncc23)sc2c1CCC(C)C2 (configuration not stated),-25,-0.9,13,1,7,4,4082
COc1ccc(C)cc1Nc1nc(N)c2ccccc2n1,-17,1.7,-5,0,-5,2,3499
Cc1ccc(SCc2nc3ncccn3c2Br)cc1,-29,7.6,6,-4,9,11,3708
COc1cc(C(C)=O)ccc1COc1ccc(C(=O)OCC(=O)NC2CCS(=O)(=O)C2)cc1OC (configuration not stated),-9,3.5,3,-12,14,1,2367
N/C(=N\OC(=O)c1ccc2c(c1)OCO2)c1cccc(Br)c1,-107,-0.1,0,14,4,1,4154
CSc1nc2c(cc1C#N)CCCCC2,-16,8.3,4,15,14,6,2373
COc1ccc(S(=O)(=O)N(C)C)cc1NCC(=O)Nc1cccc(C#N)c1,-13,1.9,4,0,-4,-2,4439
COc1ccc(C2CC(=O)N(c3ccccc3)C3=C2C(=O)CCC3)cc1 (configuration not stated),·,1.3,-1,-8,14,10,3180
C=CCNCCCCOc1ccccc1-c1ccccc1,-14,1.2,2,-2,20,14,2864
c1ccc2c(c1)nc(N1CCOCC1)c1c3ccccc3[nH]c21,-19,-0.2,-31,0,3,-1,11087
Cn1c(=O)c2c(nc(Br)n2CCSc2ncccn2)n(C)c1=O,-21,0.1,-2,4,-4,4,3346
CC12CC(NC(=O)N1Cc1ccccc1)c1ccccc1O2 (configuration not stated),-21,7.9,-6,13,1,4,7469
O=c1cc(CN2CCN(c3ccccc3)CC2)c2cc(O)c(-c3ccccc3)cc2o1,-6,-4.7,-12,3,·,·,5512
CCn1c(=O)c(C(=O)Nc2ccccc2C)c(O)c2ccccc21,-15,2.2,-1,0,3,4,22484*
